Assay outcomes as filed in PubChem.
Autofluor counter: counter-screen for toxin protease inhibitors: compound fluorescence | 360,000 compounds, 3.1% hits | compound autofluorescence counterscreen, microsphere flow cytometry; active compounds read high | AID 624483 | fluorescence intensity (test concentration not listed);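 active means at least 3 SD above the mean of all compounds, about 16000 in these data; inconclusive means too few beads counted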;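 further: 100 nL of 1 mM stock went into each well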
PrP 5UTR inh: inhibition of PrP 5' UTR reporter expression; inhibition, % (test concentration not listed); AID 488862; cell-based PrP 5' UTR mRNA reporter, plate reader; 340,000 compounds, 0.35% hits;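 active means every replicate at 50% or more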;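 further: 0 = median of the neutral control wells; tested in H4 reporter cells; numbers are from one replicate; inactives centre near -14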
* = called active by the depositor; ? = inconclusive. A portion of the library; count on the stated rates, not on these rows.

Sequence of screens – Autofluor counter | PrP 5UTR inh
N#CCCN(C(=O)CO/N=C/c1cccc([N+](=O)[O-])c1)c1ccccc1
→ 4406 | -5
CCOC(=O)c1c(-c2ccc(OC)cc2)csc1NC(=O)CCN1CCOCC1
→ 4046 | -29
CCN1C[C@@H]2[C@@H]3C(=O)N(Cc4ccccc4)C(=O)[C@@H]3[C@](C)(C1=O)N2C(=O)c1ccc(Cl)cc1
→ 3912 | -13
Cc1nc2[nH]c(=O)n(O)c(=O)c2s1
→ 3691 | -22
CC(C)(C)[C@H]1CCC(=O)N([C@H](CSc2ccc(Br)cc2)Cc2ccccc2)CC1
→ 4213 | -5
Cc1c(N2C(=O)CS/C2=N\N=C\c2ccc(Cl)cc2)c(=O)n(-c2ccccc2)n1C
→ 10187 | -27
CN(C)CCC1(C2=CCCC2)CC/C(=C/c2ccc(Cl)cc2)C1=O (stereo unspecified)
→ 2931 | -4
CCCCC(=O)OC1CCC2C3CCc4cc(O)ccc4C3CCC12C (stereo unspecified)
→ 5880 | -10
NC(=O)c1c(N)sc2c1CCC2
→ 3396 | -15
C=CC[C@H](CC(=O)N(CCO)Cc1ccccc1)C(=O)N[C@H](COC(=O)[C@@H](CC=C)CC(=O)OC(C)(C)C)c1ccccc1
→ 3556 | -14
CC(C)(C)OC(=O)C[C@@H]1C/C=C\C[C@@H](CC(=O)N(CCO)Cc2ccccc2)C(=O)NCCOC1=O
→ 2857 | -20
C=CCN1C[C@@H](C)N(C(c2ccc(C(=O)N(CC)CC)cc2)c2cccc(OC)c2)C[C@@H]1C (stereo partly specified)
→ 4511 | 14
Cc1cc(CCNC=O)c(C)c2c1oc1ccccc12
→ 3761 | 23
COC(=O)c1nn(-c2ccccc2)c(Sc2ccc(C)cc2)c1/C=N/O
→ 2942 | -27
O=C(C[C@@H]1C/C=C\CCC(=O)OC[C@@H]2CCCN2C1=O)N[C@H](CO)Cc1ccccc1
→ 3742 | -1
CC(=O)OC[C@H]1O[C@@H](Oc2cc(O)cc3oc(-c4ccc(O)cc4)cc(=O)c23)[C@H](O[C@@H]2O[C@@H](C)[C@H](O)[C@@H](O)[C@H]2O)[C@@H](O)[C@@H]1O
→ 4050 | 1
C[C@H](CO)N1C[C@H](C)[C@@H](CN(C)C(=O)Nc2ccccc2)Oc2ccc(NC(=O)Nc3ccc4c(c3)OCO4)cc2C1=O
→ 3894 | 13
O=C(O)c1ccc(C(=O)Nc2ccc(F)cc2)cc1
→ 4175 | -18
Cc1ccc2c(c1)[C@H]1[C@H](CO2)[C@H](c2ccccc2)[C@]2(C)C(=O)Nc3cc(F)ccc3C(=O)N12
→ 3669 | -10
CC(=O)c1ccc(Nc2nc(-c3ccccc3)nc3ccccc23)cc1
→ 4022 | -10
CCOC(=O)[C@H]1[C@H]2COc3ccccc3[C@@H]2N2C(=O)c3c(C)cc(C)cc3NC(=O)[C@@]12C
→ 3814 | -15
O=C(N/N=C/c1ccccc1Br)c1cccc(S(=O)(=O)N2CCOCC2)c1
→ ? | -10
COC(=O)C1=C(c2ccc(Cl)c(C(F)(F)F)c2)C[C@@H]2CC[C@H]1N2C(=O)NCc1cc(C)oc1C(F)(F)F
→ 3055 | -12
C[C@H](CO)N1C[C@H](C)[C@@H](CN(C)C(=O)NC2CCCCC2)Oc2c(NS(=O)(=O)c3cn(C)cn3)cccc2C1=O
→ 3681 | 49
COC(=O)C1=C(c2cccc(Cl)c2)C[C@@H]2CC[C@H]1N2C(=O)NCC1CC1
→ 3085 | -7
COc1ccc(OCCN2CCCC2)cc1Nc1nnc(Cl)c(Nc2ccccc2S(C)(=O)=O)n1
→ 3556 | -10
NCCCC[C@@H](C(=O)N1CCNCC1)n1cc(CN)nn1
→ 3627 | -23
Cc1ccc(NC(=O)c2ncn(CCCN(C)CCc3ccccn3)n2)cc1C
→ 3775 | -25
CCN(CC)CC(C)(C)C(=O)/C=C/c1ccc(/C=C/C(=O)C(C)(C)CN(CC)CC)cc1
→ 3960 | 46
COc1nc(=O)n(C2OC(CO)C(O)C2O)cc1C (stereo unspecified)
→ 3864 | -27
O=c1ccc2ccc(O[C@@H]3O[C@H](CO)[C@@H](O)[C@H](O)[C@H]3O)c(O)c2o1
→ 3976 | -19
COc1cc2c(oc(=O)c3cc(C)cc(OC)c32)c2c(C3OC(C)C(O)C(C)(O)C3O)ccc(O)c12 (stereo unspecified)
→ 3046 | 22
COC(=O)C1=C(\O)CCCC/C=C\1C(=O)O
→ 3112 | -11
CC12CCC(C1)C(C)(C)C2NS(=O)(=O)c1ccc(F)cc1 (stereo unspecified)
→ 3940 | -16
Cc1ccccc1S(=O)(=O)N1C[C@H]2CON(C)[C@H]2C[C@H]1c1cccc(N2CCOCC2)c1
→ 3247 | -16
C[C@@H](NCCCn1cnc2c(OCc3ccccc3)ncnc21)c1cccc2ccccc12
→ 3042 | -8
Cc1ccc(NC(=O)c2ncn(CCCNCCCc3ccccc3)n2)cc1C
→ 4036 | 6
COC(=O)CN1C(=O)[C@H]2[C@@H](/C=C/c3ccccc3)N3C(=O)CN(Cc4ccc(-c5ccccc5)cc4)C(=O)[C@@]3(C)[C@H]2C1=O
→ 3055 | -4
O=C(Cc1ccccc1)c1ccc(O)cc1O
→ 11166 | -4
CC1(C)SC2c3ccccc3C(=O)N2C1C(=O)O (stereo unspecified)
→ 4135 | -28

Exported field by field: entries from further up.
structure: Cc1ccc(NC(=O)c2ncn(CCCN(C)CCc3ccccn3)n2)cc1C
  Autofluor counter: 3775 | PrP 5UTR inh: -25
structure: CCN(CC)CC(C)(C)C(=O)/C=C/c1ccc(/C=C/C(=O)C(C)(C)CN(CC)CC)cc1
  Autofluor counter: 3960 | PrP 5UTR inh: 46
structure: COc1nc(=O)n(C2OC(CO)C(O)C2O)cc1C (stereo unspecified)
  Autofluor counter: 3864 | PrP 5UTR inh: -27
structure: O=c1ccc2ccc(O[C@@H]3O[C@H](CO)[C@@H](O)[C@H](O)[C@H]3O)c(O)c2o1
  Autofluor counter: 3976 | PrP 5UTR inh: -19

(list continues)
Sequence of screens – Autofluor counter | PrP 5UTR inh
C#CCOCCOCCOCCNc1nc(N2CCN(C(=O)[C@H]([C@@H](C)O)n3cc(CCCCN)nn3)CC2)nc(N2CCN(C(=O)[C@H](C)n3cc(CCC(=O)O)nn3)CC2)n1
→ 3840 | -3
COc1cccc(CC(=O)Nc2ccc(F)c(S(=O)(=O)N3CCOCC3)c2)c1
→ 3020 | 17
CC1([N+](=O)[O-])COP(=O)(Nc2ccc(F)cc2)OC1 (stereo unspecified)
→ 3619 | -13
NCC1OC(n2cnc3c(N)ncnc32)CC1O (stereo unspecified)
→ 4096 | -26
CC(C)(C)[C@H](N)C(=O)N[C@H]1CCC2C3CC=C4C[C@@H](O)CC[C@]4(C)C3CC[C@@]21C (stereo partly specified)
→ 3995 | -20
C=C1CC[C@@H]2[C@](C)(CO)[C@H](O)CC[C@@]2(C)[C@@H]1C/C=C1/C(=O)OCC1O (stereo partly specified)
→ 6083 | 0
Cc1n[nH]c2c([N+](=O)[O-])c(=O)[nH]c(=O)n12
→ 3661 | -12
C[C@H](CO)N1C[C@H](C)[C@@H](CN(C)CC2CCCCC2)Oc2c(NC(=O)CCC(F)(F)F)cccc2C1=O
→ 3011 | 15
C[C@@H]1COC(=O)[C@@H](CC(=O)OC(C)(C)C)C/C=C\C[C@@H](CC(=O)N[C@H](CO)Cc2ccccc2)C(=O)N1
→ 4052 | -20
CC(C)(C)[C@H]1COC(=O)CCCC/C=C\C[C@H](CC(=O)NCCO)C(=O)N1
→ 3022 | 58*
COc1ccc(S(=O)(=O)N(C)C[C@@H]2Oc3ccc(NS(C)(=O)=O)cc3C(=O)N([C@@H](C)CO)C[C@H]2C)cc1
→ 2655 | -13
CC(C)n1ncc2c(C(=O)NCc3cccnc3)cc(C3CC3)nc21
→ ? | -7
Cc1ccc2c(c1)NC(=O)[C@@]1(C)[C@@H](c3ccccc3)[C@H]3COc4ccc(Cl)cc4[C@@H]3N1C2=O
→ 3975 | -2
C[C@H]1CN([C@@H](C)CO)C(=O)c2cccc(NC(=O)Nc3ccc(C(F)(F)F)cc3)c2O[C@@H]1CN(C)C(=O)Nc1ccc(F)cc1
→ 3816 | -3
C[C@H](CO)N1C[C@H](C)[C@@H](CN(C)S(=O)(=O)c2ccc(F)cc2)Oc2c(NC(=O)Nc3ccccc3)cccc2C1=O
→ 3487 | -3
CC(C)CCN1C(N(C)C)=NC[C@@H]1C
→ 2995 | 1
Cc1cccc(N2C(=O)N3[C@H]4c5ccccc5OC[C@@H]4[C@@H](c4ccccc4)[C@@]3(C)C2=O)c1
→ 3711 | -9
N=C(N)c1ccc(N=Nc2c(O)ccc3c2[nH]c2ccccc23)cc1
→ 4106 | -15
CC(=O)Nc1ccc(S(=O)(=O)N[C@@H](C)C(=O)OCC(=O)Nc2ccc3c(c2)OCCO3)cc1
→ 3653 | -11
C#CCOCCOCCOCCNc1nc(N2CCN(C(=O)CCCCCCCCCCNC(=O)[C@@H](CCSC)n3cc(CCO)nn3)CC2)nc(N2CCN(C(=O)CCCCCCCCCCNC(=O)[C@H](CCSC)n3cc(CCO)nn3)CC2)n1
→ 3770 | -3
O=C(O)c1ccc2c(c1)S(=O)(=O)c1cc(Cl)ccc1C2=O
→ 3741 | -21
CN(Cc1cc(Cl)cc(Cl)c1)CC(C(=O)c1ccccc1)c1ccccc1 (stereo unspecified)
→ 3907 | -18
COc1cc(C2c3cc4c(cc3OC(N3CCCC3)C2C)OCO4)cc(OC)c1O (stereo unspecified)
→ 3330 | -3
CC[C@@H](O)C[C@H]1CCC[C@@]2(C[C@@H]3OC(=O)/C=C/[C@@](C)(O)[C@@H](O)[C@H](C)[C@@H](O)[C@H](OC4CCC(N(C)C)C(C)O4)[C@@H](O)[C@](C)(O)CCCCC/C=C/[C@@H]4CC(C)(C)O[C@@]4(O)C[C@H](O2)[C@H]3C)O1 (stereo partly specified)
→ 3310 | -24
Nc1scc2c(C(=O)O)nn(-c3ccccc3)c(=O)c12
→ 3031 | -3
CCC[C@@H](CN1CCC[C@H]1CN1C(N)=NC[C@@H]1Cc1ccccc1)N1C[C@@H]([C@H](C)CC)N(CCCC2CCCC2)C1=N
→ 5091 | -18
Cc1ccc(/C=N/NC(=O)c2ccc(-n3cnnn3)cc2)cc1
→ ? | -20
O=C(Nc1cc(Cl)cc2c1-c1ccc(Cl)cc1C2O)C(Cl)Cl (stereo unspecified)
→ 2793 | 4
CC(C)C[C@H]1CN=C(Nc2ccccc2)N1CC1CCC(C(C)(C)C)CC1 (stereo partly specified)
→ 3739 | -7
CC1([N+](=O)[O-])COP(=O)(Nc2ccccc2F)OC1 (stereo unspecified)
→ 4170 | -16
CC(C)C[C@@H](CNCC(=O)[C@H](Cc1c[nH]c2ccccc12)NC(=O)c1[nH]cnc1C(=O)N[C@@H](C)CN)NC(=O)c1nc[nH]c1C(=O)N[C@@H](C)C(=O)O
→ 3156 | -14
O=C(NCC1CCCO1)c1ccccc1NS(=O)(=O)c1ccc(Br)s1 (stereo unspecified)
→ 3716 | -16
CCOc1ccc(C2=CC(=O)C[C@H](c3ccc(OC)cc3)C2)cc1
→ 3040 | -17
Cc1ccc(S(=O)(=O)Nc2ccc3nc(C)oc3c2)cc1
→ 2917 | -21
CC(C)(C)N1CC(C(=O)c2ccccc2)C1c1ccccc1 (stereo unspecified)
→ 3005 | -18
Nc1ncnc2c(C3OC(CO)C(O)C3O)c[nH]c12 (stereo unspecified)
→ 3879 | 95*
CC(C)C[C@@H](CNCC(=O)[C@H](CC(C)C)NC(=O)c1[nH]cnc1C(=O)N[C@H](CN)CC(C)C)NC(=O)c1nc[nH]c1C(=O)N[C@@H](Cc1ccccc1)C(=O)O
→ 3699 | -6
O=c1cn[nH]c2ccc(Br)cc12
→ 3999 | -12
O=C(c1cccs1)N1CCN(C(=O)c2cccs2)C1=S
→ 3436 | -15
CC1C=CCCC12C(=O)NC(=O)NC2=O (stereo unspecified)
→ 3738 | -12
COc1ccc2nc3cc([N+](=O)[O-])ccc3c(NNc3ccc([N+](=O)[O-])cc3)c2c1
→ ? | -16
COc1ccc([C@H]2CC(=O)C=C(c3cccc(CO)c3)C2)cc1OC
→ 4015 | -2
CN(CCNC(=O)c1c[nH]c2c1ccc1ccccc12)CCNC(=O)c1c[nH]c2c1ccc1ccccc12
→ 4570 | -43
COC(=O)C1=C(c2ccc(Cl)c(C(F)(F)F)c2)C[C@@H]2CC[C@H]1N2C
→ 2895 | -28
CCN1C[C@@H]2[C@@H]3C(=O)N(C)C(=O)[C@@H]3[C@](Cc3ccccc3)(C1=O)N2C(=O)c1ccc(F)cc1
→ 3879 | -4
CC(C)C[C@@H](CN1CCCC1CN1C(=S)NC[C@@H]1Cc1ccc(O)cc1)N1C[C@H](Cc2ccc(O)cc2)N(CCc2ccccc2)C1=S (stereo partly specified)
→ 2918 | -9
C[C@H](CO)N1C[C@H](C)[C@@H](CN(C)Cc2ccc(-c3ccccc3)cc2)Oc2c(NS(=O)(=O)c3ccc(F)cc3)cccc2C1=O
→ 4147 | -17
Cc1cc(C(=O)Nc2cccc3c2O[C@@H](CN(C)S(C)(=O)=O)[C@H](C)CN([C@@H](C)CO)C3=O)n(C)n1
→ 3003 | 3
CC(C)C[C@@H](CNCC(=O)[C@H](CC(C)C)NC(=O)c1[nH]cnc1C(=O)N[C@@H](C)CN)NC(=O)c1nc[nH]c1C(=O)N[C@@H](C)C(=O)O
→ 3631 | -29
COc1cccc(C2=CC(=O)C[C@H](c3ccc4c(c3)OCO4)C2)c1OC
→ 4758 | -25
C#CCOCCOCCOCCNc1nc(N2CCN(C(=O)[C@H](CCCCN)n3cc(CCC(=O)O)nn3)CC2)nc(N2CCN(C(=O)[C@H](Cc3ccc(O)cc3)n3cc(CCO)nn3)CC2)n1
→ 4274 | -31
